Assay outcomes as filed in PubChem.
MITF inh: inhibitors of MITF; TRPM1 promoter luciferase, luminescence, 24 h; inhibition, % (concentration not given with the values); actives 0.28% (n = 37,000); AID 2240;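 active = most replicates at 85% or more, or half of them and the mean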;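 note: human melanocyte line stably carrying TRPM1 promoter luciferase reporter; 0% = vehicle wells and 100% = a positive control; the first replicate is given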
YB-1 expression: YB-1 expression inhibition | delta delta Cp (YB-1 minus CDIP) (concentration not given with the values) | actives 0.37% (n = 30,000) | U2OS, qRT-PCR YB-1 vs CDIP delta delta Cp, 16 h; active compounds read high; zero = DMSO, each unit about twofold | AID 434959;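 active = delta delta Cp rounded down to an integer at or above 3, about 3 SD of DMSO wells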;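 note: higher means less YB-1 transcript or more CDIP transcript relative to DMSO; stock transfer was 100 nL into about 100 µL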
Shh pathway inh: Sonic Hedgehog pathway inhibition; Shh-LIGHT2 Gli-luciferase reporter, 30 h; inhibition, % (concentration not given with the values); actives 2.1% (n = 22,000);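 active = replicate mean of 65% or more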;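 note: pathway switched on by Shh-conditioned medium diluted 1 in 25 in low serum; 100 nL library stock added to about 40 µL; 0% = median of neutral wells and 100% = positive control level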
PD-1 reversal: activators reversing PD-1 mediated T-cell inhibition; 29,000 tested, under 10 active; activation, % (concentration not given with the values); AID 2316; primary human CD4 T cells, PD-L1 beads, CellTiter-Glo 96 h;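 active = replicate mean of 50% or more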;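 note: 0% = median vehicle wells and 100% = positive control; 100 nL library stock added to about 50 µL; numbers are from one replicate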
The depositor's hits bear a star; . = no result given. This is a subset; count on the stated rates, not on these rows.

structure | MITF inh | YB-1 expression | Shh pathway inh | PD-1 reversal
Cc1ccc(S(=O)(=O)Nc2ccc3c(c2)CC(=O)N([C@H](C)CO)C[C@H](C)[C@H](CN(C)C(=O)Nc2cccc4ccccc24)O3)cc1 | -5.0 | -0.034 | 26.6 | 0.6
Cc1nnc(SCc2nc(N)nc(Nc3ccc4ccccc4c3)n2)s1 | -98.7 | . | . | -2.9
COc1ccc(NC(=O)Nc2cccc3c2O[C@H](CN(C)C(=O)Nc2cccc4ccccc24)[C@H](C)CN([C@H](C)CO)C3=O)cc1 | -17.3 | -0.165 | -19.9 | 4.1
C[C@H](CO)N1C[C@H](C)[C@H](CN(C)Cc2ccc(C(F)(F)F)cc2)Oc2ccc(NS(=O)(=O)c3ccc(F)cc3)cc2CC1=O | 7.5 | -0.193 | . | .
CC(=O)c1cccc(NC(=O)COc2ccccc2C(=O)Nc2ccccc2C#N)c1 | 22.9 | . | . | -4.9
C[C@H](CO)N1C[C@H](C)[C@H](CN(C)S(C)(=O)=O)Oc2c(NS(=O)(=O)c3cccs3)cccc2C1=O | 0.6 | -0.359 | -26.6 | 0.8
C[C@H](CO)N1C[C@H](C)[C@H](CN(C)Cc2ccc(-c3ccccc3)cc2)Oc2c(NC(=O)Nc3ccc4c(c3)OCO4)cccc2C1=O | -17.0 | -0.119 | -27.6 | -3.9
NC(=O)c1c(NC(=O)c2cnn3c(C(F)(F)F)cc(-c4cccs4)nc23)sc2c1CCCC2 | -22.7 | . | . | 0.5
Clc1cccc(OCCN2CCOCC2)c1 | 3.3 | -0.177 | 2.9 | 0.0
C[C@@H]1CN([C@H](C)CO)C(=O)Cc2cc(NS(C)(=O)=O)ccc2O[C@H]1CN(C)C(=O)NC1CCCCC1 | 0.2 | -0.169 | -0.6 | 2.3
COc1ccc(NC(=O)Nc2ccc3c(c2)C(=O)N([C@@H](C)CO)C[C@H](C)[C@@H](CN(C)Cc2ccc(C(=O)O)cc2)O3)cc1 | -3.0 | -0.166 | . | 1.7
Cc1cccc(N2C(=O)CC(Sc3nccc(C)n3)C2=O)c1 (stereo not drawn) | 1.0 | 0.262 | 2.0 | -1.0
O=C(CCCN1C(=O)c2cccc3cccc(c23)C1=O)N1CCN(c2ncccn2)CC1 | -78.2 | . | . | -0.2
O=c1c(O)c(-c2ccccc2)oc2cc(O)cc(O)c12 | -91.6 | 0.28 | -33.9 | -0.1
C[C@H]1CN([C@@H](C)CO)C(=O)Cc2cc(NC(=O)c3ccncc3)ccc2O[C@H]1CN(C)C(=O)NC1CCCCC1 | -29.4 | 0.6 | -30.6 | .
CC(C)NC(=O)N(C)C[C@@H]1Oc2ccc(NS(=O)(=O)c3ccc(Cl)cc3)cc2C(=O)N([C@H](C)CO)C[C@@H]1C | -8.4 | 0.0136 | -20.8 | 0.0
C[C@@H]1O[C@@H](OC[C@H]2O[C@@H](OCc3ccccc3)[C@H](O)[C@@H](O)[C@@H]2O)[C@H](O)[C@H](O)[C@H]1O | -1.7 | -0.499 | -10.0 | -1.4
C[C@@H]1CN([C@@H](C)CO)C(=O)Cc2cc(NC(=O)C3CC3)ccc2O[C@@H]1CN(C)C(=O)Nc1ccc(C(F)(F)F)cc1 | -2.7 | 0.163 | -34.4 | -0.6
CC(C)NC(=O)N(C)C[C@H]1Oc2ccc(NC(=O)CCN3CCOCC3)cc2C(=O)N([C@H](C)CO)C[C@@H]1C | -5.4 | 0.177 | -21.6 | 0.8
C[C@@H]1CN([C@@H](C)CO)C(=O)Cc2cc(NC(=O)Nc3ccccc3)ccc2O[C@@H]1CN(C)C(=O)Nc1ccc2c(c1)OCO2 | 10.2 | -0.394 | -26.8 | -1.4

Five entries drawn at random from those above, as already listed:
structure | MITF inh | YB-1 expression | Shh pathway inh | PD-1 reversal
O=c1c(O)c(-c2ccccc2)oc2cc(O)cc(O)c12 | -91.6 | 0.28 | -33.9 | -0.1
C[C@@H]1CN([C@@H](C)CO)C(=O)Cc2cc(NC(=O)Nc3ccccc3)ccc2O[C@@H]1CN(C)C(=O)Nc1ccc2c(c1)OCO2 | 10.2 | -0.394 | -26.8 | -1.4
NC(=O)c1c(NC(=O)c2cnn3c(C(F)(F)F)cc(-c4cccs4)nc23)sc2c1CCCC2 | -22.7 | . | . | 0.5
C[C@@H]1CN([C@@H](C)CO)C(=O)Cc2cc(NC(=O)C3CC3)ccc2O[C@@H]1CN(C)C(=O)Nc1ccc(C(F)(F)F)cc1 | -2.7 | 0.163 | -34.4 | -0.6
C[C@H](CO)N1C[C@H](C)[C@H](CN(C)S(C)(=O)=O)Oc2c(NS(=O)(=O)c3cccs3)cccc2C1=O | 0.6 | -0.359 | -26.6 | 0.8

Following part.
structure | MITF inh | YB-1 expression | Shh pathway inh | PD-1 reversal
Cc1ccc(S(=O)(=O)N(C)C[C@@H]2Oc3c(NS(=O)(=O)c4cn(C)cn4)cccc3C(=O)N([C@H](C)CO)C[C@@H]2C)cc1 | -3.4 | -0.348 | 2.5 | 2.0
COc1ccc(NC(=O)Nc2ccc3c(c2)C(=O)N([C@H](C)CO)C[C@H](C)[C@H](CN(C)Cc2ccc(C(=O)O)cc2)O3)cc1 | -0.8 | -0.206 | . | 0.3
C[C@H]1CN([C@@H](C)CO)C(=O)c2cccc(NC(=O)CCCCCC(=O)Nc3ccccc3N)c2O[C@H]1CN(C)C(=O)Nc1ccccc1 | -7.1 | 0.276 | . | 1.5
CN(c1cccc(NC(=O)c2ccc(Cl)c(S(=O)(=O)N3CCOCC3)c2)c1)S(C)(=O)=O | 16.2 | . | . | 0.3
COc1cc2c(c(OC)c1OC)C[C@H]1COC(=O)[C@@H]1Cc1c-2cc(OC)c(OC)c1OC | . | 1.13 | 67.2* | .
C[C@@H]1CCCCO[C@@H](CN(C)S(=O)(=O)c2cccs2)[C@@H](C)CN([C@H](C)CO)C(=O)c2cc(NS(=O)(=O)c3ccc(F)cc3)ccc2O1 | 27.1 | -0.233 | . | -1.9
C[C@@H]1CN([C@H](C)CO)C(=O)Cc2cc(NS(=O)(=O)c3ccc(Cl)cc3)ccc2O[C@H]1CN(C)S(=O)(=O)c1ccc(Cl)cc1 | 5.5 | -0.229 | 40.3 | 2.1
C[C@H](CO)N1C[C@H](C)[C@@H](CN(C)S(=O)(=O)c2ccccc2)Oc2ccc(NC(=O)C3CCCCC3)cc2C1=O | -4.7 | -0.413 | -11.6 | -1.4
Cc1ccc(S(=O)(=O)Nc2cccc3c2O[C@H](CN(C)S(=O)(=O)c2ccc(C)cc2)[C@H](C)CN([C@@H](C)CO)C3=O)cc1 | 0.3 | 0.824 | 16.2 | 2.9
C[C@]12CC[C@@H]3c4ccc(O)cc4CC[C@H]3[C@@H]1CC[C@@H]2O | 24.1 | 0.0815 | 90.9* | .
CC(=O)Nc1ccc(NC(=O)CN(c2ccc(C)c(Cl)c2)S(C)(=O)=O)cc1 | -4.8 | . | . | -0.1
COc1ccc(CN(C)C[C@@H]2Oc3ccc(NC(=O)Cn4cnnn4)cc3CC(=O)N([C@H](C)CO)C[C@H]2C)cc1 | -3.0 | 0.235 | -7.7 | .
COc1cccc(C(=O)Nc2ccc(NC(=O)C3CCCCC3C(=O)O)cc2)c1 (stereo not drawn) | -12.4 | . | . | -0.3
CCCn1c(NCCCO)nc2ccccc21 | -12.6 | . | . | 2.1
COc1ccccc1CNC(=O)c1ccc(Cl)c(S(=O)(=O)N2CCOCC2)c1 | 9.4 | . | . | -1.6
CCOc1ccc(NC(=O)C(C)Sc2nc3ccccc3c(=O)n2-c2cccc(C)c2)cc1 (stereo not drawn) | 22.6 | . | . | -1.2
C[C@H]1CN([C@@H](C)CO)C(=O)c2cccc(NS(=O)(=O)c3ccc(Cl)cc3)c2O[C@H]1CN(C)Cc1ccncc1 | 9.7 | -0.221 | 3.4 | -2.0
Nc1nnc(SCC(=O)Nc2ccccc2C(=O)c2ccccc2)s1 | 0.5 | . | . | 2.7
O=C(Nc1cccc(S(=O)(=O)N2CCCC2)c1)c1cc(-n2cnnc2)ccc1Cl | -16.3 | . | . | 2.9
COc1ccc(NC(=O)N(C)C[C@H]2Oc3c(NC(=O)Nc4cccc5ccccc45)cccc3C(=O)N([C@@H](C)CO)C[C@H]2C)cc1 | 13.4 | 0.246 | -5.9 | 0.6

In another format: 6 of the compounds above
Sequence of screens – MITF inh | YB-1 expression | Shh pathway inh | PD-1 reversal
COc1ccc(CN(C)C[C@@H]2Oc3ccc(NC(=O)Cn4cnnn4)cc3CC(=O)N([C@H](C)CO)C[C@H]2C)cc1
 : -3.0 | 0.235 | -7.7 | .
COc1cccc(C(=O)Nc2ccc(NC(=O)C3CCCCC3C(=O)O)cc2)c1 (stereo not drawn)
 : -12.4 | . | . | -0.3
CCCn1c(NCCCO)nc2ccccc21
 : -12.6 | . | . | 2.1
COc1ccccc1CNC(=O)c1ccc(Cl)c(S(=O)(=O)N2CCOCC2)c1
 : 9.4 | . | . | -1.6
CCOc1ccc(NC(=O)C(C)Sc2nc3ccccc3c(=O)n2-c2cccc(C)c2)cc1 (stereo not drawn)
 : 22.6 | . | . | -1.2
C[C@H]1CN([C@@H](C)CO)C(=O)c2cccc(NS(=O)(=O)c3ccc(Cl)cc3)c2O[C@H]1CN(C)Cc1ccncc1
 : 9.7 | -0.221 | 3.4 | -2.0

(more compounds)
structure | MITF inh | YB-1 expression | Shh pathway inh | PD-1 reversal
Cc1noc(C)c1NC(=O)N(C)C[C@@H]1Oc2ccc(NC(=O)NC(C)C)cc2CC(=O)N([C@H](C)CO)C[C@H]1C | -0.7 | 0.00404 | -29.7 | .
C[C@@H]1CN([C@H](C)CO)C(=O)Cc2cc(NC(=O)c3ccncc3)ccc2O[C@H]1CN(C)CC1CCCCC1 | -8.9 | -0.373 | -1.9 | 2.0
COc1ccc(S(=O)(=O)N(C)C[C@H]2Oc3ccc(NC(=O)Cn4cnnn4)cc3C(=O)N([C@@H](C)CO)C[C@H]2C)cc1 | -5.7 | 0.0249 | . | 0.6
C[C@@H]1CN([C@H](C)CO)C(=O)c2cccc(NC(=O)c3ccncc3)c2O[C@H]1CN(C)S(=O)(=O)c1ccccc1 | -8.5 | 1.14 | -1.7 | 1.9
COc1ccc(NC(=O)N(C)C[C@H]2Oc3ccc(NC(=O)CCCCCC(=O)Nc4ccccc4N)cc3C(=O)N([C@@H](C)CO)C[C@@H]2C)cc1 | -12.5 | -0.0182 | . | 2.3
O=C(NCCNC(=O)c1ccccc1[N+](=O)[O-])c1ccc(F)cc1 | -4.3 | . | . | 0.1
C[C@@H]1CN([C@H](C)CO)C(=O)c2cccc(NS(=O)(=O)c3cccs3)c2O[C@@H]1CN(C)C(=O)NC1CCCCC1 | 4.4 | 0.107 | 1.3 | -0.1
N=C1SCC(=O)N1c1nccs1 | 3.0 | 0.0938 | -17.4 | -21.4
Cc1noc(C)c1NC(=O)N(C)C[C@@H]1OCCCC[C@@H](C)Oc2ccc(NC(=O)c3ccncc3)cc2C(=O)N([C@H](C)CO)C[C@@H]1C | -9.9 | 0.0779 | -8.6 | 1.1
Cc1noc(C)c1NC(=O)Nc1ccc2c(c1)C(=O)N([C@@H](C)CO)C[C@@H](C)[C@H](CN(C)S(=O)(=O)c1ccc(F)cc1)O2 | -21.6 | 0.0757 | 3.9 | 1.8
C[C@@H]1CN([C@H](C)CO)C(=O)c2cccc(NC(=O)CCCCCC(=O)Nc3ccccc3N)c2O[C@H]1CN(C)C(=O)Nc1cccc2ccccc12 | -1.6 | -0.592 | . | 2.6
COc1ccc(S(=O)(=O)N(C)C[C@H]2Oc3ccc(NS(=O)(=O)c4ccc(Cl)cc4)cc3C(=O)N([C@@H](C)CO)C[C@H]2C)cc1 | 20.0 | -0.332 | -2.9 | -0.5
COc1ccc(S(=O)(=O)N(C)C[C@H]2Oc3c(NC(=O)c4ccncc4)cccc3C(=O)N([C@H](C)CO)C[C@H]2C)cc1 | -56.0 | -0.34 | 19.0 | 0.0
C[C@@H]1CN([C@H](C)CO)C(=O)c2cccc(NS(=O)(=O)c3cccs3)c2O[C@H]1CN(C)S(=O)(=O)c1ccccc1 | 0.1 | 0.383 | 1.9 | 4.4
CC(C)NC(=O)N(C)C[C@@H]1Oc2ccc(NC(=O)Cc3ccccc3)cc2C(=O)N([C@@H](C)CO)C[C@@H]1C | -0.5 | -0.13 | 12.2 | 0.5
C[C@H]1CN([C@@H](C)CO)C(=O)Cc2cc(NC(=O)Nc3ccc(C(F)(F)F)cc3)ccc2O[C@@H]1CN(C)C(=O)Nc1ccc(C(F)(F)F)cc1 | 29.7 | 0.0888 | 24.1 | 2.7
